# From PubChem BioAssay
# Methyltransferases – Primary Screen for Target Class Profiling of Small Molecule Inhibitors of Methyltransferases; purified enzyme, MTase-Glo SAH luminescence; hits give low values; calls only at 40 µM; actives 3.9% (n = 25,000); AID 1745853, 2022; active = -50% or lower on at least one of six enzymes; inconclusive = the cases between; inactive = as a rule above -30% on all six;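 note: enzymes were COMT GAMT GNMT HNMT NNMT and PNMT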
#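 Each enzyme was reacted with SAM and its substrate, with compounds tested once at 40 uM; SAH formed was read by MTase-Glo luminescence.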
# Calls only; i = inactive; ? = inconclusive; + = active, no number. % is set by controls: 0 for no effect and ±100 for the full control effect. An excerpt; the hit share may differ from the screen's.
structure | Methyltransferases
O=NN(CCCl)C(=O)NCCCl | i
CN(Cc1ccccc1)c1ccc(C(=O)N2CCC(CN3CCCC3=O)CC2)cn1 | i
Cc1nc2c3ccccc3n3c(CCCC(=O)NCCc4ccc(Cl)cc4)nnc3n2n1 | i
CC1(C(=O)NC2CCCCCC2)Cn2c(cc3ccccc32)C(=O)N1Cc1ccccc1 (stereo unspecified) | i
O=C(NCc1ccc(Cl)cc1)[C@@H]1Cc2nc[nH]c2CN1Cc1cc2ccccc2o1 | i
CCC(C)NC(=O)c1ccc2c(=O)n(C(C)C)c3nn(Cc4ccccc4)c(=O)n3c2c1 (stereo unspecified) | i
Cc1ccc([N+](=O)[O-])cc1S(=O)(=O)N(C)C | i
CCN(C(=O)CCC(=O)N1CCC(C)(c2noc(C)n2)CC1)c1ccccc1 | i
CC1(C(=O)NC2CCCCC2)Cn2c(cc3sccc32)C(=O)N1Cc1ccccc1 (stereo unspecified) | i
CCNc1nc2c(ncn2[C@H]2C[C@H](O)[C@@H](CO)O2)c(=O)[nH]1 | i
Nc1c(-c2ccccc2)nc(Cl)c2c(O)n[nH]c(=O)c12 | i
COc1ccccc1NC(=O)CSc1nnc2[nH]c(=O)c(C(C)(C)C)nn12 | i
N#Cc1ccc(Oc2ccc3c(c2)COB3O)cc1 | i
CC(=O)Nc1c2n(c3ccccc13)CC(C)(C(=O)NC1CCCC1)N(Cc1ccc(Cl)cc1)C2=O (stereo unspecified) | i
CCC(C)NC(=O)c1ccc2c(=O)n(C)c3nn(Cc4c(F)cccc4Cl)c(=O)n3c2c1 (stereo unspecified) | i
O=C(NCc1ccc(F)cc1)N1CCC(OC2CCN(Cc3ccccc3)CC2)CC1 | i
Cc1ccc(NC(=O)N2CCn3c(C)ccc3C2C(C)C)cc1C (stereo unspecified) | i
CCOC(=O)c1cc2n(n1)CC(C)(C(=O)NC1CCCCC1)N(c1ccccc1F)C2=O (stereo unspecified) | i
CC1COC2(CCN(c3nc(=O)c4cc(C(F)(F)F)cc([N+](=O)[O-])c4s3)CC2)O1 (stereo unspecified) | i
C=C1C(=O)O[C@@H]2C=C(COC(C)=O)CC/C=C(\CO)CC[C@@H]12 | +
Cc1ccc(CSc2nnc3n(CC(C)C)c(=O)c4ccccc4n23)cc1 | i
CC1(C(=O)NC2CCCCC2)Cn2c(cc3occc32)C(=O)N1Cc1ccccc1Cl (stereo unspecified) | i
COCc1cc(CNC(=O)CC(c2ccccc2)c2ccccc2Cl)[nH]n1 (stereo unspecified) | i
Cc1ccc(-n2ncc3c2CC(C)(C)CC3NS(=O)(=O)c2cn(C)cn2)cc1 (stereo unspecified) | i

# Ordered by length of the SMILES (low to high): 4 of the compounds above
structure | Methyltransferases
Cc1ccc(NC(=O)N2CCn3c(C)ccc3C2C(C)C)cc1C (stereo unspecified) | i
COCc1cc(CNC(=O)CC(c2ccccc2)c2ccccc2Cl)[nH]n1 (stereo unspecified) | i
CCOC(=O)c1cc2n(n1)CC(C)(C(=O)NC1CCCCC1)N(c1ccccc1F)C2=O (stereo unspecified) | i
CC1COC2(CCN(c3nc(=O)c4cc(C(F)(F)F)cc([N+](=O)[O-])c4s3)CC2)O1 (stereo unspecified) | i

# The list continues.
structure | Methyltransferases
O=C(COc1ccc2c(-c3ccccc3)cc(=O)oc2c1)c1ccccc1 | i
CC1CCCCC1NC(=O)C1(C)Cn2c(cc3occc32)C(=O)N1Cc1ccc(Cl)cc1 (stereo unspecified) | i
CCC(C)NC(=O)c1ccc2c(=O)n(CC(C)C)c3nn(CC(=O)Nc4ccc(C)cc4C)c(=O)n3c2c1 (stereo unspecified) | i
CCOCCCN1C(=O)c2cc3occc3n2CC1(C)C(=O)NC1CCCCCC1 (stereo unspecified) | i
CC(C)CCNC(=O)C1CCCN(C2CCN(CCc3ccccc3)CC2)C1 (stereo unspecified) | i
CCOCCn1c(=O)n(Cc2cc(OC)ccn2)c2cc(C(=O)O)cnc21 | i
COc1ccccc1CNC(=O)c1ccc2c(=O)nc3c(-c4ccccc4)n[nH]n3c2c1 | i
CC1(C(=O)NC2CCCCCC2)Cn2c(ccc2-c2ccccc2)C(=O)N1CCCN1CCOCC1 (stereo unspecified) | i
Cc1sc2c(c1C)C(c1ccc(Cl)cc1)=N[C@@H](CC(=O)Nc1ccc(OCCOCCOCCOCCNc3cccc4c3C(=O)N(C3CCC(=O)NC3=O)C4=O)cc1)c1nnc(C)n1-2 (stereo partly specified) | ?
Cn1nc(C(C)(C)C)cc1C(=O)N[C@@H](Cc1cccc(Cl)c1)C(=O)NCC#N | ?
COC(=O)NCCNC(=O)c1cccc(-c2ccc(SC)cc2)c1 | i
CCCn1c(=O)c2ccc(Cl)cc2n2c(SCC(=O)Nc3ccc(OC)cc3)nnc12 | i
Cc1cn2nc(C(=O)Nc3cccc(F)c3C)cc2c(N2CCCC2)n1 | ?
CC(=O)[C@H]1CCC2C3CCC4=CC(=O)CC[C@]4(C)C3[C@H](O)C[C@@]21C (stereo partly specified) | ?
Cc1cc2c(cc1S(=O)(=O)Nc1ccc(F)c(Cl)c1)n(C)c(=O)n2C | i
Cc1ccc(-c2ncccc2CNS(=O)(=O)c2ccc(C#N)cc2)cc1 | i
Cc1cccc(N2CCN(S(=O)(=O)c3ccc4[nH]c5c(c4c3)CCCC5)CC2)c1C | i
O=C(CCc1nnc2n(Cc3ccc(F)cc3)c(=O)c3ccccc3n12)NCCN1CCCC1 | ?
CC1(C)CC2C(C1)C(C)(O)C13CC1(COC3=O)C2O (stereo unspecified) | i
c1cc2c(cc1N1CCC(N3CCC4(CCNCC4)C3)CC1)OCO2 | i
COC(CCc1ccc(O)cc1)CC(=O)CCc1ccc(O)cc1 (stereo unspecified) | i
CCOc1ccc(CCNS(=O)(=O)c2cn(C)cn2)cc1OCC | i
O=C(Cn1nc2n(CCc3ccccc3)c(=O)c3ccccc3n2c1=O)Nc1cccc(F)c1 | i
CC1CCC(NC(=O)C2(C)Cn3c(cc4occc43)C(=O)N2Cc2cccc(Cl)c2)CC1 (stereo unspecified) | i
CC(C)OC(=O)C1=CN(C(=O)c2ccc(F)c(F)c2)CC(C)(C)c2c1[nH]c1ccccc21 | i
Cc1ccc(CNC(=O)C2(C)Cn3nc(C(=O)NCc4ccccc4)cc3C(=O)N2C)cc1 (stereo unspecified) | i
O=C(CCc1ccccc1)NCC1CCCCC(=O)N1 (stereo unspecified) | i
CCCn1c(=O)c2ccc(C(=O)NC3CCCC3)cc2n2c(=O)n(CC(=O)c3ccc(OC)cc3)nc12 | i
CC1CCCCC1NC(=O)C1(C)Cn2c(cc3sccc32)C(=O)N1Cc1cccnc1 (stereo unspecified) | i
COc1ccccc1N1CCN(CCCNc2c(C)c(=O)n(C)c(=O)n2C)CC1 | i
CC1(C(=O)NC2CCCCC2)Cn2c(ccc2-c2ccco2)C(=O)N1CCN1CCCCCC1 (stereo unspecified) | i
O=C(Nc1cccc(Nc2cc(Nc3cccc(C(F)(F)F)c3)ncn2)c1)C1CC1 | +
CC(C)=CCC/C(C)=C/CO[C@@H]1O[C@H](CO[C@@H]2OC[C@](O)(CO)[C@H]2O)[C@@H](O)[C@H](O)[C@H]1O | i
Clc1ccc2c(c1)C1C=CCC1C(c1ccccc1)N2 (stereo unspecified) | i
O=C(NC1CN(c2ccnc3ccnn23)C1)c1ccc(Cl)nc1 | i
CCCCOc1ccc(CNC(=O)c2cc3n(n2)CC(C)(C(=O)NCc2ccc(C)cc2)N(C)C3=O)cc1 (stereo unspecified) | i
CCc1cccc(-n2nnnc2N2CCN(C(=O)NC(C)c3ccccc3)CC2)c1 (stereo unspecified) | i
O=[S+]([O-])(c1ccncc1)c1nnn2c1nc(NCc1ccncc1)c1ccccc12 | i
CC(C)N(CCCCOCC(=O)O)c1cnc(-c2ccccc2)c(-c2ccccc2)n1 | ?
c1ccc(O[C@H]2COCCN(Cc3cccc4c3OCO4)C2)cc1 | i
COc1ccc2cc3n(c2c1)CC(C)(C(=O)NC1CCCC1)N(CC(C)c1ccccc1)C3=O (stereo unspecified) | i
O=C(N[C@@H]1CN(C(=O)Nc2ccc(F)cc2)CCC[C@H]1O)c1ccc(OCCN2CCCC2)cc1 | i
CN1C[C@H](C(=O)N[C@]2(C)O[C@@]3(O)[C@@H]4CCCN4C(=O)[C@H](Cc4ccccc4)N3C2=O)C[C@@H]2c3cccc4[nH]cc(c34)C[C@H]21 | ?
CC1(C(=O)NC2CCCCCC2)Cc2ccccc2C(=O)N1C1CCCCCC1 (stereo unspecified) | i
CCOC(=O)[C@H]1C[C@]2(CCCCNC2=O)N(C(=O)c2cccc(OC)c2)[C@H]1c1ccco1 | i
CC1=C[C@@H](CO)[C@H](C(C)C)C[C@H]1CC(=O)NCc1cc(F)cc(F)c1 | i
C=CCC1(C(=O)O)CCCN(C(=O)c2cnn3c2CCCC3)C1 (stereo unspecified) | i
CCCn1c(=O)c2ccc(C(=O)NC(C)CC)cc2n2c(=O)n(CC(=O)Nc3ccc(C)c(C)c3)nc12 (stereo unspecified) | i
CC(=O)O[C@@H]1CC[C@@]2(C)[C@H](CC[C@@H]3[C@@H]2C[C@H](OC(C)=O)[C@]2(C)[C@@H](C(C)=O)CC[C@@H]32)C1 | i
CCOc1ccc(-c2cc3n(n2)CC(C)(C(=O)NC2CCCCC2)N(CCC(C)C)C3=O)cc1 (stereo unspecified) | i
CC(C)NC(=O)c1ccc2c(=O)n(C(C)C)c3nn(CC(=O)Nc4ccccc4Cl)c(=O)n3c2c1 | i
O=C(COc1ccccc1)N1C[C@@H](CO)[C@H](c2ccccn2)C1 | i
Cc1noc(C)c1S(=O)(=O)N1CC(n2cnnc2C2CCCO2)C1 (stereo unspecified) | i
Cc1ncc(CCCN(C)C)cc1Nc1ncc2c(n1)-c1ccc(C(F)(F)F)cc1NC(=S)C2 | +
CS(=O)(=O)CCNC(=O)C1CCCN(C2CCN(Cc3cccnc3)CC2)C1 (stereo unspecified) | i
Cc1ccc(N2C(=O)c3ccc(-c4ccco4)n3CC2(C)C(=O)NCc2ccc(Cl)cc2)c(C)c1 (stereo unspecified) | i

# (further entries)
structure | Methyltransferases
Cc1cccc(O[C@H]2COCCN(c3nc4ccccc4s3)C2)n1 | ?
Cc1ccnc(NS(=O)(=O)c2ccc(NC(=O)Nc3ccc(S(=O)(=O)Nc4nccc(C)n4)cc3)cc2)n1 | i
Cc1cccc(CCNC(=O)c2cc3n(n2)CC(C)(C(=O)NCc2ccccc2)N(C)C3=O)c1 (stereo unspecified) | i
CCCn1c(=O)c2ccc(C(=O)NCC(C)C)cc2n2c(=O)n(CC(=O)c3ccc(OC)cc3)nc12 | i
CC(C)OCCCn1c(=O)c2ccccc2n2c(=O)n(CC(=O)Nc3ccccc3F)nc12 | i
COc1cccc(CN2CC3(C2)NC(=O)c2ccccc2O3)c1 | i
CSc1cccc(N2C(=O)CSc3c(c4ccccc4n3C)C2C(=O)NCCC(C)C)c1 (stereo unspecified) | i
CC(C)(O)CNc1nc(Nc2ccnc(C(F)(F)F)c2)nc(-c2cccc(C(F)(F)F)n2)n1 | i
COc1ccc(-c2nnn3c2nc(N2CCC(C)CC2)c2ccccc23)cc1 | i
Cc1cccc(N2CCN(C(=O)c3ccc4c(=O)[nH]c5c(C(=O)NC6CCCC6)sc(=S)n5c4c3)CC2)c1C | i
CCn1c(=O)sc2cc(NS(=O)(=O)c3ccc4c(c3)n(C)c(=O)n4C)ccc21 | i
Cc1cccc(CNC(=O)c2cc3n(n2)CC(C)(C(=O)NC2CCCCCC2)N(C)C3=O)c1 (stereo unspecified) | i
COc1ccc(C(=O)NCCn2c(C)cnc2-c2ccccc2)cn1 | i
CCCn1c(=O)c2ccc(Cl)cc2n2c(=O)n(Cc3ccccc3)nc12 | i
Cc1cc2c(cc1Cl)N(C(=O)Nc1ccc(Oc3cccnc3C)nc1)CC2 | i
c1ccc(Cc2ncc3c(n2)CCNCC3)cc1 | i
CN1C(=O)CS(=O)C12CCN(C(=O)C1(c3ccccc3)CC1)CC2 (stereo unspecified) | i
Cc1cc(OC2CN(C(=O)c3ccccn3)C2)ccc1F | i
Cc1ccc(Cn2c(=O)c3ccccc3n3c(SCC(=O)NC(C)C)nnc23)cc1 | i
Cc1ccc(N(C)C(=O)Cn2c(=O)oc3cc(S(=O)(=O)N4CC(C)CC(C)C4)ccc32)cc1 (stereo unspecified) | i
COCCNC(=O)C[C@@H]1C[C@H]2O[C@H](CNCc3cccnc3OC)[C@@H](O)[C@H]2O1 | i
COc1ccc([C@H]2OC[C@H]3O[C@@H](O[C@H]4[C@@H]2NC[C@@H]4O)[C@H](O)[C@H]3O)cc1 | i
CCC(C)NC(=O)c1ccc2c(=O)n(CC(C)C)c3nnc(SCC(N)=O)n3c2c1 (stereo unspecified) | i
COc1ccc(CCCN2CCC(COC(c3ccccc3)c3ccccc3)CC2)cc1 | i
Cc1ccccc1Cn1nc2n(CC(C)C)c(=O)c3ccc(C(=O)NCC(C)C)cc3n2c1=O | i
Cc1ccc(CNC(=O)c2ncn3c2C(=O)N(C2CC2)C(C)(C(=O)NCc2ccc(F)cc2)C3)cc1 (stereo unspecified) | i
Cc1ccc(Cn2c(=O)c3ccccc3n3c(=O)n(CC(=O)Nc4ccc5c(c4)OCCO5)nc23)cc1 | i
C/C=C(\C)C(=O)O | ?
C[C@@H]1CN(C(=O)c2ccc(-c3ccn[nH]3)cc2)CC[C@@]1(O)C1CCOCC1 | i
O[C@@H]1CO[C@H]2[C@@H]1OC[C@@H]2n1nnnc1Sc1ncccn1 | i

# Part of the list above, as labelled records.
structure: Cc1ccc(CNC(=O)c2ncn3c2C(=O)N(C2CC2)C(C)(C(=O)NCc2ccc(F)cc2)C3)cc1 (stereo unspecified)
- Methyltransferases: i

structure: Cc1ccc(Cn2c(=O)c3ccccc3n3c(=O)n(CC(=O)Nc4ccc5c(c4)OCCO5)nc23)cc1
- Methyltransferases: i
